# HSV replic up: increases HSV replication in cells; HSV replication augmentation in cells, fold increase; maximum fold increase; hit rate 0.005% among 220,000;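 active = peak rise of 1.5-fold or more in the series; inconclusive = self-fluorescent or not available for retest; tested in PC3 cells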;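 also: first round at 10 µM; read as green reporter fluorescence; hits show the peak of a series up to 25 µM; 1 = signal of infected wells without compound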
# GALR2 ag: agonists of human galanin receptor 2 (GALR2); GALR2-expressing cells, agonist activation read-out; O43603; activation, %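 (tested at 5 µM)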; AID 803; hit rate 0.48% among 140,000;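 active = above mean plus 3 SD of all compounds, about 5% in these data, not always enough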;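 also: 0% = vehicle buffer wells and 100% = reference agonist at full effect; tested in CHO reporter cells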
# PKD1 inh: inhibitors of human PKD1 kinase; PKD1 kinase fluorescence polarization assay; inhibition, %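 (about 10 µM by stock and volumes)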; hit rate 0.056% among 200,000;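 active = inhibition of 50% or more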;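 also: controls were vehicle for no effect and a reference inhibitor for full effect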
# Target sequence (Q15139 whole entry, looked up): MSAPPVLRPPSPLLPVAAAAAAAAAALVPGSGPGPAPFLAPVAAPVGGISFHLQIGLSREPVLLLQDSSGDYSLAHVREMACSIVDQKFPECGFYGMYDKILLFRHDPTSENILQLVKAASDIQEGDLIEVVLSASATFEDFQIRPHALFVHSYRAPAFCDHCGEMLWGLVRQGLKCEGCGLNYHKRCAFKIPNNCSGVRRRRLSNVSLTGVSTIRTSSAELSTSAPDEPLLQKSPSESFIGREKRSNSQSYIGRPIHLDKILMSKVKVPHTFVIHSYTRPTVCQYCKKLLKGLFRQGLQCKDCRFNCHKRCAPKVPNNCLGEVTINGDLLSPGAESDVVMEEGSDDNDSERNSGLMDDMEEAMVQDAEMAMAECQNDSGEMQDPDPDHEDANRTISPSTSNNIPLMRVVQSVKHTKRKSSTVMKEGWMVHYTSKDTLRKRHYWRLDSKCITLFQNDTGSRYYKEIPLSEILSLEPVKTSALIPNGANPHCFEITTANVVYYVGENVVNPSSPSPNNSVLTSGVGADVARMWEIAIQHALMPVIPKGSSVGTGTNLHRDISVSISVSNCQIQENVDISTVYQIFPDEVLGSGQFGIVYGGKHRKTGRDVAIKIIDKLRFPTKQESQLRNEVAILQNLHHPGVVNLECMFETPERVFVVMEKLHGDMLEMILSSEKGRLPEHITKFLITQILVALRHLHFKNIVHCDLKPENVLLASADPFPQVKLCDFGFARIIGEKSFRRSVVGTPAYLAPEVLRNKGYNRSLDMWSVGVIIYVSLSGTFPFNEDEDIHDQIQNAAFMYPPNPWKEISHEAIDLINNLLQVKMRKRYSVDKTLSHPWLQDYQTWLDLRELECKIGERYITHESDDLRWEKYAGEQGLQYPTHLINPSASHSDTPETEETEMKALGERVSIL
# RGS16-Gao: modulates binding between human RGS16 and Galphao. binding response (% of control), % at 10 µM. bead-based flow cytometry RGS16-Galphao binding, fluorescence; actives lie on both sides. AID 1441. hit rate 0.38% among 220,000;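 active = below 25% or above 175%, edge rows of some plates excepted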;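 also: Galphao activated by GDP with aluminum fluoride before binding; 100% = wells without compound and 0% = beads without RGS; some results beyond the cut were filed as inactive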
# Insulin prom inh: TRM-6 insulin promoter activity inhibition. TRM-6 cells (human fetal islet line), insulin promoter-eGFP reporter, imaging; reporter expression induced with tamoxifen. inhibition, % at 2 µM. hit rate 0.9% among 130,000. AID 1273;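 active = inhibition above the mean plus 3 SD, with well images judged a real hit on visual review, cut at about 60% in these data, passing the limit was not always enough; inconclusive = inhibition over the cutoff but images rejected on review; inactive = inhibition not above the cutoff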
# Insulin prom inh cell count: recorded beside Insulin prom inh, whose call it bears; normalized cell count, %; measured here: cell count, toxicity; reference of the scale not given here;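 cells exposed to compound for 48 h; stained nuclei by imaging scaled within each plate; lower means fewer cells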
# HSV replic up primary fold: second read-out of HSV replic up, no call of its own (marks repeat the call); fold increase; compound at 10 µM; measured here: primary screen fold increase 10 uM; tested in PC3 cells;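 GFP signal in the first replicate; 1 = infected wells without compound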
# The depositor's hits bear a star; i = inactive; u = inconclusive; x = no result given.
mol,PKD1 inh,RGS16-Gao,HSV replic up primary fold,GALR2 ag,Insulin prom inh cell count,Insulin prom inh,HSV replic up
COc1ccccc1CCNC(=O)CCn1c(=O)oc2ccccc21,7.3,87.9,0.81,-2.0,x,x,i
Cc1ccc(N2CN=c3s/c(=C\c4ccccn4)c(=O)n3C2)cc1,0.0,52.8,0.85,-1.5,116.6,16.7,i
Cc1ccc(-c2ccnc3nc(-n4cccc4)nn23)o1,-5.6,100.2,0.95,x,x,x,i
COc1ccc(NC(=O)CSc2ccc(NC(C)=O)cc2)cc1S(=O)(=O)N1CCCCC1,-6.1,104.9,1,-0.7,178.1,33.3,i
Cc1ccc(/C=C/C(=O)c2ccccc(=O)c2O)c(C)c1,-15.1,94.3,0.69,-2.1,72.9,-62.5,i
Cc1ccc(S(=O)(=O)CCC(=O)N2CCc3ccccc32)cc1,1.0,98.7,x,-0.8,90.8,-3.6,x
CC(=O)Nc1ccc2nc(SCC(=O)O)sc2c1,-3.1,104.1,0.997,-1.9,81.9,20.0,i
COc1ccc(Nc2nc(-c3ccc4c(c3)NC(=O)CO4)cs2)cc1,-2.6,96.5,1,x,x,x,i
Cc1ccc(/C=N/NC(=S)N2CCOCC2)cc1,-5.5,105.1,1.07,-0.1,79.1,-38.7,i
CCOC(=O)c1ccccc1NC(=S)N1CC(C)CC(C)C1 (stereo unspecified),-0.4,71.3,x,-0.9,x,x,x
Cc1cc(NCCCn2ccnc2)n2nc(C)c(-c3ccc(Cl)cc3)c2n1,-1.9,103.8,0.62,-1.2,83.9,56.5,i
Cc1cc(C)cc(NC(=O)C2CCN(c3nc(C)cc(C)n3)CC2)c1,-3.9,94.7,1.02,2.1,117.8,33.3,i
CCCS(=O)(=O)N1CCN(C2CCC(C)CC2)CC1 (stereo unspecified),-1.4,99.6,0.9,x,x,x,i
COC(=O)c1c(NC(=O)CCCC(=O)O)sc(C)c1C,3.4,100.8,0.93,-1.6,74.8,-3.9,i
O=C(O)CC1C(=O)NCCN1C/C=C/c1ccccc1 (stereo unspecified),-5.4,106.6,0.82,-0.9,x,x,i
Cc1ccc(C2NC(=O)NC(O)(C(F)(F)F)C2C(=O)c2ccccc2)o1 (stereo unspecified),-4.3,108.2,0.88,1.0,69.5,-392.9,i
CCCCN1CC(O)=C(c2nc3ccccc3s2)C1=N,-11.2,113.3,0.99,-0.7,x,x,i
CC(=O)c1ccc(N2C(=O)C3C(C2=O)C(C(=O)c2ccc(Cl)cc2)N2CCCC32)cc1 (stereo unspecified),-0.8,109.5,1.08,-0.7,96.7,18.8,i
CC(C)(C)c1ccc(S(=O)(=O)n2c(CN3CCOCC3)nc3ccccc32)cc1,-3.4,103.1,0.91,-0.7,71.3,-5.4,i
Cc1cccc(-c2ccc(C=Nc3c(C)n(C)n(-c4ccccc4)c3=O)o2)c1,1.4,91.0,0.86,-1.6,x,x,i
Cc1ccc2nc(-c3cccc(NC(=O)c4ccc5c(c4)OCCO5)c3)oc2c1,-11.0,84.9,0.82,-0.7,x,x,i
CC1CCN(CC(=O)Nc2cccc(Cl)c2)CC1,0.6,101.8,0.88,x,x,x,i
Cn1c(=O)c2c(O)c(C=Nc3ccc(F)cc3)c(=O)n(C)c2n(C)c1=O,x,97.8,1.01,x,x,x,i
CCOC(=O)/C(=N\Nc1ccccc1Cl)N1CC(C)OC(C)C1 (stereo unspecified),x,98.6,0.43,x,x,x,i
COc1ccc(C2=NOC(C(=O)Nc3cccnc3)C2)cc1 (stereo unspecified),-0.5,77.9,1.28,-1.9,145.8,40.0,i
O=C(NC1CC1)C1=C[C@@H](c2ccc3c(c2)OCO3)C[C@@H](OCCCCO)O1,x,101.1,1.08,x,x,x,i
CCOC(=O)C1CCN(C(=O)c2ccccc2NS(=O)(=O)c2cc(C)ccc2C)CC1,-3.8,105.1,0.99,0.0,x,x,i
COc1ccc(N2C(=O)CC(N3CCN(C4CCc5ccccc5C4)CC3)C2=O)cc1 (stereo unspecified),11.7,109.0,0.95,-1.4,43.7,-86.0,i
COc1cccc(C(c2sc3nc(C)nn3c2O)N2CCN(c3ccccc3F)CC2)c1 (stereo unspecified),-3.4,98.4,0.95,-1.5,x,x,i
COc1ccc(NS(=O)(=O)c2cccc3nsnc23)cc1OC,-1.0,100.7,0.92,-0.1,91.0,-25.0,i
CCOC(=O)C1(CCCc2ccccc2)CCN(C(=O)CCc2cnccn2)CC1,-4.2,101.5,0.98,x,x,x,i
c1ccc(-c2csc(NC3=NCCCCC3)n2)cc1,-8.9,95.3,1.02,-0.6,x,x,i
O=C(CCSc1ccccc1)Nc1ncccn1,-5.0,101.4,0.84,-1.4,134.6,57.9,i
OC(c1nnc(-c2ccccc2)o1)c1cccs1 (stereo unspecified),-0.4,101.3,1.01,x,105.9*,75.0*,i
CCOc1cc(/C=C2\C(=O)N(c3ccc(C(N)=O)cc3)N=C2C)ccc1OC(=O)c1cccs1,-5.8,101.2,0.94,-3.1,114.0,9.7,i
COC(=O)c1ccccc1NC(=O)C1CC(c2ccccc2O)=NO1 (stereo unspecified),-2.7,105.1,0.69,-2.9,119.4,44.8,i
CCOC(=O)CNC(=O)c1sc(NC(=O)/C=C/c2ccccc2)nc1C,x,100.2,1.02,x,x,x,i
CC(Sc1ccccc1)C(=O)N(CCC#N)Cc1cccnc1 (stereo unspecified),3.3,104.7,0.97,x,121.2,0.0,i
CCOc1ccc(-c2ccc(SCC(=O)N3CCOCC3)nn2)cc1,-3.1,105.0,1.04,x,98.5,-131.2,i
COC(=O)C1CCCN1S(=O)(=O)c1ccc2ccccc2c1 (stereo unspecified),-12.6,110.5,0.88,-1.4,x,x,i
COC(=O)c1ccc(-c2ncc[nH]2)cc1,-3.7,101.5,0.84,x,x,x,i
CCCn1ncc(/C=N/O)c1C,x,97.7,0.95,x,x,x,i
COCCNS(=O)(=O)c1ccc2c(c1)C(=NO)c1cc(S(=O)(=O)NCCOC)ccc1-2,x,103.2,0.87,x,x,x,i
Cc1cc(/C=N/NC(=O)c2ccncc2)c(C)n1-c1cccc(C(F)(F)F)c1,x,104.9,1.24,x,x,x,i
Cc1cc(=O)[nH]c(SCC(=O)/C=C2\N(C)c3ccccc3C2(C)C)n1,9.9,107.0,x,-3.2,113.3,-207.7,x
COC(=O)COc1ccc(S(=O)(=O)NCc2ccco2)cc1Cl,0.0,105.5,0.74,0.1,81.0,17.3,i
COc1ccc(-c2c(NC(=O)C(C)C)n(C)c3ccccc3c2=O)cc1,-2.2,101.6,1.02,0.4,147.5,-19.4,i
Cc1cnccc1CN(C)C(=O)CC1C(=O)NCCN1CC1CCCCC1 (stereo unspecified),-0.8,102.8,0.97,x,109.7,26.7,i
Cc1ccccc1NC(=O)c1c([N+](=O)[O-])c(C(C)(C)C)nn1C,-6.1,133.0,1,0.0,71.3,-57.1,i
Cc1cc[n+](CC(=O)c2cc3ccccc3oc2=O)cc1,-5.8,56.2,0.96,-1.0,56.9,-55.6,i
O=C(Cc1c[nH]c2ccccc12)NCc1ccccc1F,-4.0,98.2,0.99,x,x,x,i
Cc1nn(-c2ccccn2)c2c1C(c1ccsc1)C1=C(CCCC1=O)N2 (stereo unspecified),-3.4,99.2,x,-0.2,40.5,-126.1,x
CCCn1c(=O)c2[nH]c(C3CCCC3)nc2n(CCC)c1=O,11.6,64.3,0.95,-0.2,103.3,-40.9,i
N#Cc1c(-c2cccnc2)c2c([nH]c1=O)-c1ccccc1OC2,x,106.2,0.98,x,x,x,i
Oc1ccc(-c2nnc(Nc3ccccc3)c3ccccc23)cc1,x,102.2,0.8,x,x,x,i
CC(OC(=O)c1nsc(Cl)c1Cl)C(=O)NC(C)(C)C (stereo unspecified),-4.7,101.2,0.987,-1.4,144.7,-140.0,i
Oc1cccc(NC(=S)N=Nc2c(O)[nH]c3ccc(Br)cc23)c1,x,128.5,0.79,x,x,x,i
CCOc1ccc(NC(=O)NC23CC4CC(CC(C4)C2)C3)cc1,2.2,25.6,0.92,-0.4,74.9,11.4,i
O=C(c1ccc(Cl)cc1)C1CCCN(Cc2cccn2-c2ccccn2)C1 (stereo unspecified),1.6,98.7,0.82,x,x,x,i
CCNC(=O)c1ccccc1NC(=O)c1cccc(S(=O)(=O)N2CCOCC2)c1,8.9,-4.5*,0.88,0.1,90.6,-11.1,i

# Among those listed so far, these have a cyano group.
mol,PKD1 inh,RGS16-Gao,HSV replic up primary fold,GALR2 ag,Insulin prom inh cell count,Insulin prom inh,HSV replic up
CC(Sc1ccccc1)C(=O)N(CCC#N)Cc1cccnc1 (stereo unspecified),3.3,104.7,0.97,x,121.2,0.0,i
N#Cc1c(-c2cccnc2)c2c([nH]c1=O)-c1ccccc1OC2,x,106.2,0.98,x,x,x,i

# Structures listed above shown as hits in RGS16-Gao:
molecule | PKD1 inh | RGS16-Gao | HSV replic up primary fold | GALR2 ag | HSV replic up
CCNC(=O)c1ccccc1NC(=O)c1cccc(S(=O)(=O)N2CCOCC2)c1 | 8.9 | -4.5* | 0.88 | 0.1 | i

# Continuation:
mol,PKD1 inh,RGS16-Gao,HSV replic up primary fold,GALR2 ag,Insulin prom inh cell count,Insulin prom inh,HSV replic up
CN(C)C(=O)C12CCC(C)(C(=O)C1Br)C2(C)C (stereo unspecified),x,94.9,0.94,x,x,x,i
N#Cc1ccc(-c2nnnn2-c2ccc3c(c2)OCO3)cc1,11.4,101.6,0.84,0.2,136.0,-66.7,i
CC(=O)C1=C(O)C(=O)N(Cc2ccco2)C1c1ccccc1 (stereo unspecified),-1.0,103.3,0.88,-1.5,118.6,29.8,i
Cc1nnc(SCC(=O)NCCOc2ccc(Cl)cc2)n1-c1ccccc1,0.2,100.7,1.03,-3.5,119.0,0.0,i
COC(=O)c1sc2ncccc2c1OCc1cccc(Cl)c1,-5.6,101.7,0.87,-2.6,144.3,17.2,i
CC1=C(C(=O)OCc2ccccc2)C(c2ccsc2)C(C#N)=C(N)O1 (stereo unspecified),4.3,48.5,1.04,-1.2,115.0,0.0,i
CCOC(=O)c1[nH]c(C)c(C(=O)OCCN2C(=O)c3ccccc3C2=O)c1C,-7.2,101.0,0.9,1.9,x,x,i
COc1cc(/C=C/C(=O)OCC(=O)NC(=O)NC(C)C)ccc1OCC#N,-1.3,90.0,0.86,-2.2,136.6,37.0,i
C/C(=N\NC(=O)Nc1ccccc1)c1ccc2ccccc2c1,12.8,52.9,0.89,-0.9,104.6,33.3,i
Cc1nc(NCCc2ccccc2)c(C#N)c(C)c1[N+](=O)[O-],3.6,102.3,0.88,-0.1,x,x,i
CN/C=C1\C(=O)C(C)(C)Oc2ccc3ccc(=O)oc3c21,1.4,103.3,0.89,-1.8,138.2,0.0,i
Oc1c(C(Nc2nccs2)c2ccc(C(F)(F)F)cc2)ccc2cccnc12 (stereo unspecified),-6.0,105.2,0.83,x,x,x,i
CCn1c(=O)cc(OCC(=O)NCCCN2CC(C)CC(C)C2)c2ccccc21 (stereo unspecified),-6.8,95.6,0.89,-0.9,99.7,-42.9,i
Cc1cc2n(n1)SC(Nc1cc(Cl)ccc1Cl)N2 (stereo unspecified),6.6,88.8,0.82,0.3,201.5,0.0,i
Cc1cc([N+](=O)[O-])nn1CCCC(=O)N1CCN(c2ccccc2)CC1,-10.9,76.3,0.99,-1.0,55.2,27.8,i
CCOc1ccc(-c2nc(N)ncc2Oc2cccc(OC)c2)c(O)c1,-1.6,100.5,0.76,0.3,93.6,-13.9,i
CCCOc1ccc(C(=O)NNC(=S)NC(=O)c2cc(-c3ccccc3)nc3ccccc23)cc1,-6.0,104.5,x,-3.2,134.3,-46.0,u
N/C(=N\c1nc(CSc2ccccn2)cc(=O)[nH]1)Nc1ccc(Cl)cc1Cl,x,106.6,0.89,x,x,x,i
C=CCSC1=C(C#N)C(c2ccc(OCC)cc2)CC(=O)N1 (stereo unspecified),-6.7,150.4,0.79,-2.8,x,x,i
Cc1onc(-c2ccccc2)c1C(=O)Nc1ccc2c(c1)OCO2,8.7,162.6,0.85,-0.6,48.9,35.7,i
Cc1cc(N2CCCC2)nc(SCC(=O)c2ccccc2)n1,-6.4,80.1,0.98,0.4,133.7,50.0,i
